FPR binding: small-molecule ligands of human FPR – U937-FPR cells, fMLFK-FITC, flow cytometry, primary screen (AID 362) | U937-FPR cells, fMLFK-FITC displacement, flow cytometry; stronger effect = higher value; test concentration not given here; most inactive calls were filed without a number and no value below 0 was filed | inhibition, % | actives 1% (n = 4,300);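 active means inhibition of labelled peptide binding to the formyl peptide receptor of at least 65%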;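 further: plate controls were buffer control wells for no effect and unlabeled fMLFF blocking peptide for full effect; higher means less cell fluorescence so more probe displaced; part of the set was picked by virtual screening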
The depositor's hits bear a star; i = inactive. Some of the compounds tested. The share of hits here may be higher or lower than overall.

SMILES	FPR binding
CCCCCc1nc2ccccc2c(=O)n1-c1ccc(O)cc1	42.9
CCCCOC(=O)C1=C(N)OC2=C(C(=O)CC(C)(C)C2)C12C(=O)N(C)c1ccccc12 (centres undefined)	i
CCCCOC(=O)C1=C(N)OC2=C(C(=O)CC(C)(C)C2)C12C(=O)Nc1ccccc12 (centres undefined)	2.5
O=c1cccc2n1CC1CC2CN(c2nc3ccccc3nc2C(F)(F)F)C1 (centres undefined)	i
CCOC(=O)N(CC)c1ccc(C(O)(C(=O)OCC)C(F)(F)F)cc1 (centres undefined)	10.0

Arranged by molecular weight (smallest number first): some entries from above
SMILES	FPR binding
CCCCCc1nc2ccccc2c(=O)n1-c1ccc(O)cc1	42.9
CCOC(=O)N(CC)c1ccc(C(O)(C(=O)OCC)C(F)(F)F)cc1 (centres undefined)	10.0
CCCCOC(=O)C1=C(N)OC2=C(C(=O)CC(C)(C)C2)C12C(=O)N(C)c1ccccc12 (centres undefined)	i
